P. yoelii liver: Plasmodium liver-stage growth inhibition, dose response, imaging, Malaria Box, P. yoelii, HepG2-A16-CD81EGFP (AID 602156); calls after a first round at 10 µM; hits with a dose series show IC50 in µM; P. yoelii liver stage in HepG2-A16-CD81EGFP, imaging; first-round cut-off not given here; 4.8% of 5,700 active; in the data active = a potency from the dose series;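 note: infected cells exposed to compound for 48 hours before fixation; stained parasite area by imaging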
Numbers without * were called inactive; i = inactive.

SMILES	P. yoelii liver
Cc1ccc(NC(=O)CSc2nc3cc(C(=O)NCCCOC(C)C)ccc3c(=O)n2Cc2ccco2)cc1Cl	i
CCN1CCN(c2cc(C)c3cc(NC(=O)c4ccc(OC)c([N+](=O)[O-])c4)ccc3n2)CC1	i
CC(=O)N(C)C1=C(N2CCCCCC2)C(=O)c2ccccc2C1=O	i
Cc1ccc(-c2nc(CS(=O)(=O)CC(=O)NC3CCC(C)CC3)c(C)o2)cc1 (centres undefined)	i
COc1ccc2nc(C)cc(Nc3cccc(Cl)c3)c2c1	i
COc1cncc(-c2cncc(N3CCN(c4ccncc4)CC3)n2)c1	i
O=C(NNC(=S)NCc1ccco1)C(F)(F)F	i
CC1CC2(C)Oc3ccccc3CC2C(C)C1CNCCCN(C)C (centres undefined)	i
O=C1CN(C(=O)c2cc([N+](=O)[O-])c(N3CCCCC3)c([N+](=O)[O-])c2N2CCCCC2)c2ccccc2N1	i
COCCNC(=O)CN1C(=O)CC(C)(C)Sc2ccccc21	i
COc1cccc(Cn2c(C)nc3cc(NC(=O)Nc4ccccc4)c(C)nc32)c1	i
CC1(C)C(=O)C2(CCCCC2)C(=O)OC1/C=C/c1ccccc1 (centres undefined)	i
CCCCCc1ccc(C(=O)NCCCCNc2ccnc3cc(Cl)ccc23)cc1	i
CCc1ccc(NC(=O)c2ccc(F)c(S(=O)(=O)NC3CCCC(C)C3C)c2)cc1 (centres undefined)	i
Nc1ccc(C(=O)NN=Cc2cccc([N+](=O)[O-])c2)cc1	i
O=C(NCCCCNc1ccnc2cc(Cl)ccc12)c1cccc(C(F)(F)F)c1	i
CN1C(=CC=[N+](C)c2ccccc2)C(C)(C)c2cc(Cl)ccc21	i
CCOc1ccccc1C(=O)NC(Nc1sc2c(c1C(N)=O)CCCC2)(C(F)(F)F)C(F)(F)F	i
CCOC(=O)C1=C(C)N(c2ccc(OCC)cc2)C(=O)/C1=C\c1ccc(C(C)C)cc1	i
O=C(Cn1c(=O)oc2cc(S(=O)(=O)N3CCCC3)ccc21)Nc1cccnc1	i
COc1cc(C(=O)C=CNc2ccc(N(C)C)cc2)cc(OC)c1OC	i
O=C(Nc1ccc(-c2nc3ccccc3[nH]2)cc1)c1ccc(Cl)c(Cl)c1	i
CN(C)c1ccc(C(C=C2C=C(c3ccccc3)C=C(c3ccccc3)O2)=C2C=CC(=[N+](C)C)C=C2)cc1	0.0519µM*
CC(C)c1ccc(/C=C2/SC(=Nc3ccccc3)NC2=O)cc1	i
COc1ccc(CNC(=O)CCc2cn(Cc3cc(C)ccc3C)c3ccccc23)cc1OC	i
CN(/C=C/c1sc2ccc3ccccc3c2[n+]1C)c1ccccc1	i
COc1ccc(C2CC(=O)C3=C(C2)NC(C)=C(C(=O)OC2CCCC2)C3c2ccc([N+](=O)[O-])cc2)cc1OC (centres undefined)	3.92µM*
Oc1ccc(-c2nc(-c3ccccc3)c(-c3ccc4oc5ccc(-c6[nH]c(-c7ccc(O)cc7)nc6-c6ccccc6)cc5c4c3)[nH]2)cc1	i
COC(=O)c1ccc(N(C(=O)Cc2c[nH]c3ccccc23)C(C(=O)NC2CCCCC2)c2cccnc2)cc1 (centres undefined)	i
CCCCCCN(C(=O)c1ccc2ccccc2c1)C(CC)c1nc2ccccc2c(=O)n1-c1ccccc1OC (centres undefined)	i
COc1ccccc1NC(=O)N(Cc1ccccc1)C(C)c1nc2ccccc2c(=O)n1-c1cc(C)ccc1C (centres undefined)	i
COc1cc2nc(N=C(N)N)nc(C)c2cc1OC	i
COc1ccc(C=NNc2nc3ccccc3[nH]2)cc1OC	i
CCN(c1ccccc1)S(=O)(=O)c1ccc(F)c(C(=O)Nc2c(C)cccc2C)c1	i
O=S(=O)(ON=C1CCCc2sc(Cl)cc21)c1ccccc1	i
Cc1cc(C)c2c(c1)-c1c(ssc1=S)C(C)(C)N2C(=O)c1ccccc1	i
Cc1ccccc1CNC(=O)c1oc2c(c1C)-c1[nH]ncc1CC2	i
O=C(O)CSc1ccc(C(=O)NC2CCCCNC2=O)cn1 (centres undefined)	i
O=C(CCCCCN1C(=O)c2cccc3cccc(c23)C1=O)NO	i
Cc1ccc(OCCCCN2CCOCC2)c([N+](=O)[O-])c1	i
Cc1ccccc1Oc1cc(NC(=O)c2cc3n(n2)C(C(F)(F)F)CC(c2ccccc2)N3)cc(Oc2ccccc2C)c1 (centres undefined)	i
COc1ccc(-c2cn(-c3ccc(OC)cc3)c(SCC(=O)Nc3ccccc3)n2)cc1	i
CCc1c(C#N)c(N)nc2sc(C(=O)c3ccc(Br)cc3)c(N)c12	i
Cc1nn(C)cc1-c1nc2cnccn2c1NCC1CCCO1 (centres undefined)	i
CSc1ccccc1CN1CCc2nc(N3CCCCC3)sc2C1	i

In the list so far, these contain an aryl thioether with sulfur outside any ring:
SMILES	P. yoelii liver
Cc1ccc(NC(=O)CSc2nc3cc(C(=O)NCCCOC(C)C)ccc3c(=O)n2Cc2ccco2)cc1Cl	i
O=C(O)CSc1ccc(C(=O)NC2CCCCNC2=O)cn1 (centres undefined)	i
COc1ccc(-c2cn(-c3ccc(OC)cc3)c(SCC(=O)Nc3ccccc3)n2)cc1	i
CSc1ccccc1CN1CCc2nc(N3CCCCC3)sc2C1	i

4 of the compounds above, field by field:
Compound: CC1CC2(C)Oc3ccccc3CC2C(C)C1CNCCCN(C)C (centres undefined)
- P. yoelii liver: i

Compound: CC(C)c1ccc(/C=C2/SC(=Nc3ccccc3)NC2=O)cc1
- P. yoelii liver: i

Compound: COc1ccc(C=NNc2nc3ccccc3[nH]2)cc1OC
- P. yoelii liver: i

Compound: CC1(C)C(=O)C2(CCCCC2)C(=O)OC1/C=C/c1ccccc1 (centres undefined)
- P. yoelii liver: i

More entries.
SMILES	P. yoelii liver
Clc1cc(C=NNC2=NCCCN2)cc(Cl)n1	i
FC(F)(F)c1cccc(Nc2nc3nonc3nc2Nc2ccc(Cl)cc2)c1	i
CC(C)(C)c1ccc(O)c(CNC2CCCCC2)c1	i
O=C(NCCCN1CCCCC1)c1ccc2c(c1)sc1nc(-c3ccc(F)cc3)cn12	i
CCCCOc1ccc(N(C(C)=O)C2=C(N3CCCCC3)C(=O)c3ccccc3C2=O)cc1	i
O=C(CN1CCCC1)Nc1c2c(nc3c1CCC3)CCC2	i
COCCCNc1nc2cc(OC)c(OC)cc2c2nc(-c3ccccc3)nn12	i
O=C1Cc2ccccc2C(=C2CCNCC2)c2ccsc21	i
CCCCCCCC[n+]1c(C)n(CC)c2cc(C(=O)OCC)ccc21	0.99µM*
CCN(CC)c1ccc(C=Cc2cc[n+](Cc3ccc(F)cc3)cc2)cc1	i
CCOc1ccccc1C=NNc1nc(Nc2ccccc2)nc(Nc2ccccc2)n1	i
CCCCCCCCN[C@@H](C)[C@@H](O)c1ccc(SC(C)C)cc1	i
CC1CCC2C(C)C(O)OC3OC4(C)CCC1C32OO4 (centres undefined)	i
CCN1C(=Cc2ccc3ccccc3[n+]2CC)Sc2cc(NC(C)=O)ccc21	i
CCOC(=O)c1c(C)oc2c1C(=O)c1ccccc1C2=O	i
O=C(CC(=O)N1CCOCC1)Nc1ccc2nc3n(c(=O)c2c1)CCCCC3	i
CSc1nc(N)nc(SC2C=CCCC2)c1C#N (centres undefined)	i
COc1cc2nc(NCc3cccnc3)n3nc(-c4ccccc4)nc3c2cc1OC	i
CN(C)c1ccc(C=NNc2nc(N)nc(N)n2)cc1	i
CCC(C)(C)n1nnnc1C(c1cc2ccc(C)cc2[nH]c1=O)N1CCN(c2ccccc2)CC1 (centres undefined)	i
O=[N+]([O-])c1ccc(NN=Cc2cccs2)c(S(=O)(=O)N2CCCCCC2)c1	i
COc1cccc(C2Sc3ccccc3NC3=C2C(=O)c2ccccc23)c1 (centres undefined)	i
Cc1ccccc1Nc1nc(NCc2ccco2)c2ccccc2n1	i
c1ccc(-c2ccnc3c2ccc2c(-c4ccccc4)ccnc23)cc1	i
CCCCc1c(C)[nH]c2ccc(Br)cc2c1=O	0.0647µM*
COc1ccc(-c2c[n+](CC(=O)c3ccccc3)c3n2CCC3)cc1	i
COc1ccc(-c2noc(CNC(=O)c3cccc(I)c3)n2)cc1	i
CC[n+]1c(/C=C2\Sc3cc(NC(C)=O)ccc3N2C)ccc2ccccc21	i
CC[n+]1c(/C=C/N(C)C)sc2ccccc21	i
Cc1cccc(N2C(=O)C3C(C2=O)C2(c4ccccc4)C(=O)C3(c3ccccc3)C(c3ccc4c(c3)OCO4)=C2c2ccc3c(c2)OCO3)c1 (centres undefined)	i
CCN1C(=Cc2ccc3cc(C)ccc3[n+]2CC)Sc2ccc(OC)cc21	i
COc1ccc(C(=O)C2CC2c2ccc(Cl)cc2)cc1 (centres undefined)	i
O=C(NCc1ccccc1)c1cnc(NCCCN2CCCC2)nc1NCC1CCCCC1	i
O=C(Nc1ccc(-c2nc3ccc(NC(=O)c4cccc([N+](=O)[O-])c4)cc3[nH]2)cc1)c1cccc([N+](=O)[O-])c1	i
COc1ccc(C2CC(=O)C3=C(C2)NC(C)=C(C(=O)OC2CCCC2)C3c2cccc(C)c2)cc1OC (centres undefined)	0.779µM*
Cc1ccc(N=C2SC(=Cc3c(Cl)cccc3Cl)C(=O)N2c2ccc(C)c(C)c2)cc1C	i
CCN(C(C)=O)C1=C(N2CCOCC2)C(=O)c2ccccc2C1=O	i
CCCSc1nc(N)c(NC(=O)c2ccco2)c(=O)[nH]1	i
O=C(Nc1ccc(C2=NCCN2)cc1)c1ccc(NC(=O)c2ccc(C3=NCCN3)cc2)cc1	i
COc1cc2nc(CN(C)C(C)c3cccs3)nc(N3CCCC3)c2cc1OC (centres undefined)	i
O=S(=O)(c1ccccc1)N1CCN(CC2CNCCO2)CC1 (centres undefined)	i
Cc1cc(C)cc(-n2c(C)cc(/C=C3\SC(=Nc4ccc(Cl)cc4)NC3=O)c2C)c1	i
CCCCc1ccc(C(=O)Oc2ccccc2-c2nc3cc(C)ccn3c2NC(C)(C)CC(C)(C)C)cc1	i
COC(=O)c1ccnn(-c2ccccc2)c1=O	i
COC(=O)c1ccc(NC(=O)CSc2nc3cc4c(cc3cc2C#N)OCCO4)cc1	i
O=C(NC(CN1CCCC1)c1ccccc1)C1CCN(S(=O)(=O)c2ccc(Cl)cc2)CC1 (centres undefined)	i
CCCCOc1ccc(N2C(N)=NC(N)=NC2(C)C)cc1	i
CC[n+]1ccc(C=C2C=Cc3cc(C)ccc3N2C)cc1	i
O=C(NC(=S)Nc1ccc(-c2nc3ccccc3s2)cc1)c1ccc(S(=O)(=O)N2CCCC2)cc1	i
O=C(C(Cc1c[nH]c2ccccc12)NS(=O)(=O)c1ccc(Cl)cc1)N1CCCCC1 (centres undefined)	i
CCN(CC)S(=O)(=O)c1cc(C(=O)O)ccc1Cl	i
Oc1ccc(-c2cccnc2)cc1CNC1C2CC3CC(C2)CC1C3 (centres undefined)	i
COc1cccc(-c2nc3c(OC)ccc(OC)c3cc2CNCC(C)(C)CN(C)C)c1	i
COc1cccc(NC(=O)Cn2c(C)c(C#N)c3ccccc32)c1	i
Clc1ccc(C2Nc3ccc4ccccc4c3C3C=CCC32)c(Cl)c1 (centres undefined)	i
Cc1ccccc1N=c1oc2ccc3ccccc3c2cc1-c1nc2ccccc2[nH]1	i
CCOC(=O)c1ccc(OCC2c3cc(OC)c(OC)cc3CCN2C(=O)c2ccc([N+](=O)[O-])cc2)cc1 (centres undefined)	i
Cc1cc(Nc2ccc(N(C)C)cc2)n2ncnc2n1	i
CC(=O)N(C1=C(N2CCCC2)C(=O)c2ccccc2C1=O)c1ccc(I)cc1	i
Cc1ccc(-c2c[n+](Cc3cccc(C)c3)c3n2CCC3)cc1	i
Next section:
SMILES	P. yoelii liver
CC(C)(C)c1ccc(-c2cn(-c3ccccc3)c3[n+]2CCCS3)cc1	i
N#Cc1cc2[nH]c3ccccc3c2n(-c2ccc([N+](=O)[O-])cc2)c1=N	i
COc1ccc2c(c1)[nH]c1c(N3CCN(C(c4ccccc4)c4ccccc4)CC3)ncnc12	i
CCN1CCCC(Nc2ccnc3cc4ccccc4cc23)C1 (centres undefined)	i
O=C(NCc1ccccc1)c1cnc(NCCN2CCCCC2)nc1NCCc1ccccc1	i
CCN1CCN(c2cc(C)c3cc(NC(=O)/C=C/c4cc(OC)ccc4OC)ccc3n2)CC1	i
CCc1c(C(=O)N2CCN(C(=O)CCl)C(C)C2)cnn1-c1nc(-c2ccc(Br)cc2)cs1 (centres undefined)	i
Cc1cccc(Nc2nc(NCc3ccco3)c3ccccc3n2)c1	i
CCN1CCN(c2cc(C)c3cc(NC(=O)c4cc(OC)cc(OC)c4)ccc3n2)CC1	3.74µM*
O=C1C(=Cc2cc([N+](=O)[O-])cc(Br)c2O)C(=O)c2ccccc21	i
CN(C)S(=O)(=O)c1ccc(C(=O)Nc2nc3c(ccc4ccccc43)s2)cc1	i
CCCOc1ccc(NC(=O)c2ccco2)cc1	i
COc1ccc(-n2nc(C(=O)NCC(=O)Nc3nc4ccccc4s3)c3ccccc3c2=O)cc1Cl	i
Oc1ccc(-c2ccnc3cc(Cl)ccc23)cc1CNC1CCCCC1	i
CC1=C(C(=O)OC(C)C)C(c2ccc([N+](=O)[O-])cc2)C2=C(CC(c3ccc(Cl)cc3)CC2=O)N1 (centres undefined)	i

Entries above containing a COOH group (2):
SMILES	P. yoelii liver
O=C(O)CSc1ccc(C(=O)NC2CCCCNC2=O)cn1 (centres undefined)	i
CCN(CC)S(=O)(=O)c1cc(C(=O)O)ccc1Cl	i

(next part)
SMILES	P. yoelii liver
Cc1cc(C)c2nc(SCC(=O)Nc3ccc4c(c3)OCCO4)cc(C)c2c1	i
N#Cc1sccc1NS(=O)(=O)c1ccc(Cl)cc1	i
O=C(C[n+]1cc(-c2ccc(Cl)cc2)n2c1CCC2)c1ccc(C2CCCCC2)cc1	i
Cc1ccc[n+](C(C)C(=O)c2ccc(-c3ccccc3)cc2)c1 (centres undefined)	i

An excerpt; the hit share may differ from the screen's.
